Source: PubChem (several laboratories)
ugtP null kill – growth inhibition of S. aureus ugtP deletion strain | S. aureus RN4220 ugtP deletion, OD600 growth, 16 h; some inactives read as strong as hits | growth inhibition, % (concentration not given with the values) | hit rate 0.54% among 330,000 | AID 1259309;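 active = z-score under -3 and OD600 up to 0.15 on both plates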;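 note: plate controls were untreated wells for no effect and antibiotic for full effect; wells of about 80 µL received 100 nL stock; the first replicate is given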
Bead autofluor – counter-screen for toxin protease inhibitors: compound fluorescence | compound autofluorescence counterscreen, microsphere flow cytometry; stronger effect = higher value | fluorescence intensity (test concentration not listed) | hit rate 3.1% among 360,000;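 active = at least 3 SD above the mean of all compounds, about 16000 in these data; inconclusive = too few beads counted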;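 note: 100 nL of 1 mM stock went into each well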
RN4220 kill – S. aureus RN4220 growth inhibition | OD600, 16 h | hit rate 0.33% among 330,000 | inhibition, % (test concentration not listed) | AID 1259311;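 active = z-score of -3 or lower and OD600 up to 0.18 on both plates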;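 note: plate controls were untreated cells for no effect and reference antibiotic for full effect; stock transfer was 100 nL into about 80 µL; one replicate is shown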
BJeLR viability – kills HRASV12-expressing BJeLR cells; BJeLR (HRASV12) viability, CellTiter-Glo ATP luminescence, 48 h; reference of the scale not given here; inhibition, % (concentration not given with the values); hit rate 0.17% among 300,000; AID 1554;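 active = replicate mean above 50%; inconclusive = above 50% but judged a plate artefact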;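 note: 50 nL library stock added to about 25 µL; numbers are from one replicate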
Mtb hypoxia rep – Mtb hypoxia fluorescent reporter inhibition; M. tuberculosis hypoxia-regulated fluorescent reporter, fluorescence; fluorescence inhibition, % (no concentration beside the values); hit rate 0.1% among 300,000; AID 1159583;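 active = 35 to 45% if threefold the growth effect, above 45% if 1.5-fold the growth effect; inactive = the rest, general growth blockers included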;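 note: wells of about 50 µL received 100 nL stock; 0% = vehicle wells and 100% = reference inhibitor wells; whole bacteria with a GFP reporter of the hypoxia response; strong numbers were not always called active; many hits fall short of the cut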
PrP 5UTR inh – inhibition of PrP 5' UTR reporter expression. cell-based PrP 5' UTR mRNA reporter, plate reader. inhibition, % (no concentration beside the values). hit rate 0.35% among 340,000;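 active = every replicate at 50% or more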;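 note: 0 = median of the neutral control wells; tested in H4 reporter cells; numbers are from one replicate; inactives centre near -14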
Mtb hypoxia rep growth – also measured in Mtb hypoxia rep; calls as there; growth inhibition, %; measured here: M. tuberculosis growth (absorbance);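 0% = vehicle and 100% = reference antibiotic; read after six days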
Starred values were filed as active, the others as inactive; u = inconclusive; x = no result given.

Molecule,ugtP null kill,Bead autofluor,RN4220 kill,BJeLR viability,Mtb hypoxia rep,Mtb hypoxia rep growth,PrP 5UTR inh
COCCNC(=O)c1onc(CSc2cc(C)cc(C)c2)c1C(=O)O,x,3513,x,-5,x,x,-22
CC(=O)Oc1ccc(N(C(C)=O)S(=O)(=O)c2ccc(C)cc2C)c2ccccc12,-7,6894,5.9,-3,6,16,-10
Cc1ccc(S(=O)(=O)CCSc2cccc(C(=O)O)c2)cc1,12,3797,6.6,-5,-2,10,7
CCOC(=O)N(NC(=O)C(O)(c1ccccc1)c1ccccc1)c1ccccc1,4,2632,2.6,7,0,-3,-39
CCOc1cccc2sc(NC(=O)CC)nc12,0,5659,3.8,0,10,5,-9
COc1ccccc1N1CCN(C(=O)NCc2cccc(C(F)(F)F)c2)CC1,0,3753,-5.3,-5,10,8,-19
O=C1C2C3C=CC(C3)C2C(=O)N1c1ccc(-c2nc3ccccc3o2)cc1 (stereo not drawn),2,2917,4.3,-1,8,6,-78
COc1cccc(C=Nc2cc(C)cc(C)c2)c1O,-1,2344,2.3,-5,10,12,-10
C[C@]12CCC3C(CC[C@H]4[C@@H](O)[C@H](O)CC[C@]34C)C1CCC2=O (stereo partly drawn),5,4159,4.8,x,8,8,-23
CCCN1Cc2cccc(C(=O)Nc3ccc(OC)c(OC)c3)c2C1=O,6,4642,2.8,x,21,6,-15
CSc1nccc(Oc2ccc(C#N)cc2)n1,8,2517,2.7,3,9,6,-23
O=C(CN1CCN(Cc2ccccc2)CC1)Nc1ccc(N2CCOCC2)cc1,-8,2048,-9.8,11,-6,-4,-4

Ordered by SMILES length (smallest number first): part of the list above.
Molecule,ugtP null kill,Bead autofluor,RN4220 kill,BJeLR viability,Mtb hypoxia rep,Mtb hypoxia rep growth,PrP 5UTR inh
CSc1nccc(Oc2ccc(C#N)cc2)n1,8,2517,2.7,3,9,6,-23
COc1cccc(C=Nc2cc(C)cc(C)c2)c1O,-1,2344,2.3,-5,10,12,-10
Cc1ccc(S(=O)(=O)CCSc2cccc(C(=O)O)c2)cc1,12,3797,6.6,-5,-2,10,7
COc1ccccc1N1CCN(C(=O)NCc2cccc(C(F)(F)F)c2)CC1,0,3753,-5.3,-5,10,8,-19
CCOC(=O)N(NC(=O)C(O)(c1ccccc1)c1ccccc1)c1ccccc1,4,2632,2.6,7,0,-3,-39
CC(=O)Oc1ccc(N(C(C)=O)S(=O)(=O)c2ccc(C)cc2C)c2ccccc12,-7,6894,5.9,-3,6,16,-10
C[C@]12CCC3C(CC[C@H]4[C@@H](O)[C@H](O)CC[C@]34C)C1CCC2=O (stereo partly drawn),5,4159,4.8,x,8,8,-23

The list goes on:
Molecule,ugtP null kill,Bead autofluor,RN4220 kill,BJeLR viability,Mtb hypoxia rep,Mtb hypoxia rep growth,PrP 5UTR inh
CC(C)Cn1c(N)c(C(=O)CSc2nc3ccccc3n2C)c(=O)n(C)c1=O,2,7891,3.4,-3,3,2,-6
S=c1[nH]nc(-c2ccco2)n1/N=C/c1cccc(Cl)c1Cl,x,1934,x,3,x,x,-8
O=C(CSc1nc2ccccc2s1)N1c2ccccc2Sc2ccc(Cl)cc21,15,8421,-3.2,-3,9,6,5
CCCCOCCCNC(=O)N[C@@H](CCSC)C(=O)OC,-2,10533,0.8,-10,4,5,x
CN(C(=O)c1cccc(NC(=O)Cc2ccc(NC(=O)C3CCN(C(=O)C4CCCC4)CC3)cc2)c1)C1CCCC1,3,2833,2.5,x,-13,-9,8
CCOC(=O)C1CCN(C(=O)/C=C/c2cccs2)CC1,2,2049,3.1,12,-3,4,-33
CCSc1nnc(NC(=O)c2ccc(Br)s2)s1,27,12961,48,3,7,1,-26
Cc1ccc(CSCC(=O)N/N=C/c2sccc2C)cc1,x,2881,x,1,x,x,-19
O=C(CNc1n[nH]c(=O)[nH]c1=O)N/N=C/c1cccnc1,x,2575,x,0,x,x,-21
CCOC(=O)N1CCN(C(=O)c2cc3ccc(OC)cc3[nH]2)CC1,15,3387,1.5,2,3,-1,0
O=C(CSc1nncn1-c1ccccc1F)NC1CC1,-1,4175,3.1,x,11,8,-33
Cc1occc1C(=O)NC(C)C(C)(C)C (stereo not drawn),-1,8362,2.1,2,-2,-6,-8
Cc1c(NP(=O)(C(C)(C)C)C(C)(C)C)c(=O)n(-c2ccccc2)n1C,6,4606,1.3,-4,5,14,-26
COc1ccc(Cc2nc(C)cc(Cl)n2)cc1[N+](=O)[O-],6,3776,1.0,-13,10,9,-25
O=C(O)c1ccc(N2C(=O)CCCC2=O)cc1,2,4139,8.9,-1,3,3,-13
O=C(COC(=O)c1ccccc1NCCO)NNC(=O)c1cccs1,7,u,5.3,0,2,-2,-12
Cc1ccc(CC(=O)NN=Cc2ccc(OC(=O)c3ccc([N+](=O)[O-])cc3)cc2)cc1,4,x,3.0,x,-1,5,x
CC(OC(=O)c1cccc(S(=O)(=O)N(C)C)c1)C(=O)NCc1ccc2c(c1)OCO2 (stereo not drawn),3,4984,2.2,9,-12,0,-11
Cc1ccc(NC(=O)C(=O)NCc2ccncc2)cc1,16,4571,3.3,-4,9,5,-71
O=C(Nc1ccccc1)Nc1ccncc1,3,4178,0.8,-3,1,3,-4
CCOC(=O)c1c(C2COc3ccccc3O2)csc1N (stereo not drawn),68,7959,1.9,-12,2,3,-23
COc1ccc(OC)c(N(CC(=O)Nc2ccc3c(c2)OCO3)S(=O)(=O)c2ccccc2)c1,5,7889,-5.1,-8,6,10,-5
CCOC(=O)c1ccc(N=Cc2nc(-c3ccccc3)oc2OC(C)=O)cc1,1,4147,1.6,-2,13,13,-4
CN(C)/C=N/c1nc2nccc(-c3ccccc3)n2n1,x,4424,x,3,x,x,-24
C[C@H](NC(=O)Cc1cccc2ccccc12)C(=O)NCc1ccccc1,5,4129,0.5,5,12,-2,-12
COC(=O)Cn1c(=NC(=O)C(C)(C)C)sc2c(C)cc(C)cc21,18,4963,16,-4,2,1,0
CCc1ccc2oc(=O)cc(CN3CCC(C)CC3)c2c1,8,5254,8.3,-5,6,7,0
O=C(Nc1ccc(F)cc1)/C(Cl)=C/c1ccccc1,x,4275,x,-5,x,x,-148
CCN(CC)CCn1c(=S)[nH]c2cc(C(=O)NCc3ccccc3Cl)ccc2c1=O,7,4054,1.3,4,-7,-1,-1
CCOC(=O)N1CCN(C(=O)c2cnn3ccccc23)CC1,7,6113,0.1,0,4,15,-27
O=C(Cc1cccs1)NN=C/C=C\c1ccco1,0,x,1.5,x,5,11,x
C[C@H](CO)N1C[C@H](C)[C@@H](CN(C)S(=O)(=O)c2ccc(F)cc2)Oc2c(NC(=O)Cc3ccccc3)cccc2C1=O,2,3928,2.2,x,-7,6,-25
Cc1cccc(C)c1NC(=O)c1cc(S(=O)(=O)N2CCOCC2)cn1C,2,5259,1.5,-2,-1,2,-2
C=CCOc1ccc(CNCCc2ccc(S(N)(=O)=O)cc2)cc1,-3,2247,0.1,5,-3,4,-8
COC(=O)Cc1nnc(NC(=O)c2ccccc2)s1,2,4219,-0.3,0,x,x,-11
CCOCCOc1nc(C)cc(C)c1S(=O)(=O)c1ccccc1C,0,2484,2.3,-4,3,-3,-26

(listing goes on)
Every second line gives: ugtP null kill, Bead autofluor, RN4220 kill, BJeLR viability, Mtb hypoxia rep, Mtb hypoxia rep growth, PrP 5UTR inh
N#CCCn1cc(C(=O)Nc2ccc([N+](=O)[O-])cc2)c(-c2cc3ccccc3o2)n1
    -12, 4352, -7.3, -2, -3, 4, 3
Cc1ccccc1-c1nnc(NC(=O)CSc2nc3ccccc3s2)s1
    5, 4273, -13, -10, 6, 4, -7
Cc1ccccc1N(CC(=O)N/N=C/c1ccc(N(C)C)cc1)C(=O)c1ccccc1
    x, 3223, x, -5, x, x, -9
CC(C)(C)c1nc(CN2CCOCC2)ccc1O
    1, 21380*, 12, -13, 10, 2, -16
CC(C)C[C@H](NC(=O)N1CC(=O)Nc2ccccc21)C(=O)N[C@@H](C(=O)O)c1ccccc1
    4, 5974, 3.4, 9, 14, 3, -14
CC(=O)c1ccc(N2CCN(C(=O)c3ccco3)C(C)C2)c(F)c1 (stereo not drawn)
    -4, 9753, 19, x, 4, 12, -24
Cc1ccc(CN(CC(=O)NC2CCCC2)C(=O)c2csnn2)cc1
    7, 2858, 3.7, -8, 1, -4, -8
O=C(c1ccc(CSc2nc3ccncc3[nH]2)cc1)N1CCN(c2cccc(Cl)c2)CC1
    -1, 6634, -3.9, 8, -6, 0, -5
COc1ccc(CC(=O)N2CCC(c3ccccc3)C2)cc1 (stereo not drawn)
    5, 4424, 3.9, 2, -12, -1, -6
CCOc1ccc(/C=N/NC(=O)Cc2csc(Nc3cccc(C(F)(F)F)c3)n2)c(OCC)c1
    x, 3246, x, 4, x, x, 2
CCn1nnc(NC(=O)c2sc3ccccc3c2Cl)n1
    1, 3250, 7.1, -6, 17, 3, -32
COC(=O)c1ccc(=O)n(-c2ccc(OC)cc2)c1
    1, 3268, -4.9, -8, 25, -17, -9
O=c1c(-c2ccco2)[n+]([O-])c2ccccc2n1OCc1ccccc1[N+](=O)[O-]
    1, 2590, 6.0, -4, -6, 5, -17
COC(=O)c1ccc(-n2nnnc2SCC(=O)Nc2ccccc2F)cc1
    9, 3287, 5.9, -3, 17, 8, -16
CCN(CC)CCNC(=O)c1cc2c(=O)n(C)c3ccccc3c2n1C
    -1, 6366, 1.5, -6, x, x, -13
COc1ccc(NC(=O)CN(C)C(=O)c2ccc(=O)[nH]c2)cc1
    1, 4897, 1.4, 0, -4, 7, -27
CCn1ncc([N+](=O)[O-])c1C(=O)Nc1ccc(C)c(C)c1
    0, 4418, 0.7, 0, -2, 10, 3
Cn1cccc1CC(=O)NN=Cc1ccc(Cl)c([N+](=O)[O-])c1
    -4, x, -0.9, x, 5, 9, x
COc1cccc2cc(C(=O)Oc3ccccc3)c(=O)oc12
    52, 3852, 6.4, 3, 8, -1, -11
CC(=O)N1CCC2(CC1)CC(=O)c1cc(OCC(=O)N3CCOCC3)ccc1O2
    4, 6390, 0.5, 4, 9, -6, -9
CCCCn1c(N)c(N(CC(C)C)C(=O)CSc2ccc3c(c2)OCCO3)c(=O)[nH]c1=O
    -6, 3952, -1.3, x, -9, 7, 1
Cc1ccccc1-n1c(=O)c2ccccc2n2cnnc12
    3, 9038, 2.2, -5, 16, 10, -25
CCN(CC)C(=O)c1[nH]cnc1C(=O)N[C@@H](CCCCNC(=O)OC(C)(C)C)C(=O)OC(C)(C)C
    x, 2951, x, 4, x, x, 6
CCOc1ccc(C(=O)Nc2cc(=O)n(C)c(=O)n2C)cc1
    3, 4726, 0.4, -16, 1, 5, -23
Cc1cccc(N2CCN(S(=O)(=O)c3cccc4nonc34)CC2C)c1 (stereo not drawn)
    -2, 4078, 5.6, -5, 12, 13, -33
C=CCN(CC=C)C(=O)COC(=O)c1ccc(Sc2ncn[nH]2)c([N+](=O)[O-])c1
    -3, 4332, 2.5, 9, 12, 8, -16
COc1ccc(C2C(C(=O)NCc3ccccc3)=C(C)Nc3ncnn32)cc1OC (stereo not drawn)
    16, u, 15, 5, 11, 4, -7
Cc1ccc(C)c(S(=O)(=O)Nc2ccc(O)c(C(=O)O)c2)c1
    7, 3482, 2.2, -12, -14, -9, -8
COc1ccc(OC)c(NC(=O)COC(=O)Cc2ccc(-c3ccccc3)cc2)c1
    4, 2313, 3.7, -10, 8, 5, -23
N/C(Cc1ccc([N+](=O)[O-])cc1)=N\OC(=O)COc1ccccc1Cl
    x, 2550, x, -6, x, x, -36
